KCNQ2 pot = potentiators of rat KCNQ2 potassium channel | B-score at 10 µM | 310,000 compounds, 0.54% hits | AID 2239 | CHO-K1 KCNQ2, FluxOR thallium flux fluorescence; hits give high values | O88943;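 active = fluorescence ratio B-score at least 3 SD of library B-scores, with initial fluorescence B-score within 3 SD, cut at about 5.3 in these data; same plate scores as AID 2156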;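 also: B-score of peak minus minimum over baseline fluorescence ratio after K+ and Tl+ stimulus; positive B-score means potentiation of KCNQ2 with more thallium influx and brighter signal; only the inactives scoring about 0 or higher are listed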
Target sequence (O88943 whole entry, looked up): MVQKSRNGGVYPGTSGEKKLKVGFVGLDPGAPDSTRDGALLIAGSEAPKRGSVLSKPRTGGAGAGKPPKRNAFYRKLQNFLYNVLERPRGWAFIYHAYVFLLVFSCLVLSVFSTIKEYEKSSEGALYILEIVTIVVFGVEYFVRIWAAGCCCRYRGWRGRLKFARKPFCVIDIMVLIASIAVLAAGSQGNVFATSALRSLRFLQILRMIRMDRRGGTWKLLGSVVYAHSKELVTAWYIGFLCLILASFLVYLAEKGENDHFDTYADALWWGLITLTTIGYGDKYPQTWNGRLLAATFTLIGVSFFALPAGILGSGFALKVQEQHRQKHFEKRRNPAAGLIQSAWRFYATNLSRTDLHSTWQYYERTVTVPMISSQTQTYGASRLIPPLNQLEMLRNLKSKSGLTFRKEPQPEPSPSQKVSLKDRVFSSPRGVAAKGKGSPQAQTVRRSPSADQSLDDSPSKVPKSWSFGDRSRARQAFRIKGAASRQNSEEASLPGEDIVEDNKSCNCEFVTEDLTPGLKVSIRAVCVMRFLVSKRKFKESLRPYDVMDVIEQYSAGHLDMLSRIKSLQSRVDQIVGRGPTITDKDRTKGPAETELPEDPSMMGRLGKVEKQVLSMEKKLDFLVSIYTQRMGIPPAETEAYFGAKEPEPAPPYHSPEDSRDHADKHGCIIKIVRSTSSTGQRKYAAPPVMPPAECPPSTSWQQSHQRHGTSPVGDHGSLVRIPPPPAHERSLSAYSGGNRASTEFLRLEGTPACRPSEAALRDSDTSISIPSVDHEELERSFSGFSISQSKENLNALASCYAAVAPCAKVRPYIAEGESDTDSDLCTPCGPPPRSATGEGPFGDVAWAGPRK
KCNQ2 pot baseline = also measured in KCNQ2 pot; calls as there; B-score; compound at 10 µM; measured here: initial fluorescence intensity artifact check;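 brightness before thallium and not channel activity; 0 = typical well and far values either way flag optical interference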
* = called active by the depositor; ! = a repeat was not active. An excerpt (hit frequency here may not be typical).

KCNQ2 pot | KCNQ2 pot baseline | structure
0.94 | -1.18 | O=C(NC1CCS(=O)(=O)C1)C12CC3CC(CC(C3)C1)C2 (stereo unspecified)
0.23 | -1.97 | Cc1cc(C)nc(NS(=O)(=O)c2ccc(NC(=O)C3COc4ccccc4O3)cc2)n1 (stereo unspecified)
0.75 | 1.37 | Cc1ccc(N(CC(=O)N2CCCC2)S(C)(=O)=O)cc1C
0.38 | -1.44 | COC(=O)c1ccc(NC(=O)CSc2nc(=O)n3cccc(C)c3n2)cc1
1.53 | 0.25 | COc1ccccc1NC(=O)NC1(C(=O)N2CCOCC2)CCCCC1
1.52 | 0.47 | CCC(C)N=C1SCC(C)(/C=N/O)S1 (stereo unspecified)
0.52 | -0.38 | CCOCCn1c(SCCc2ccccc2)nc2c1c(=O)[nH]c(=O)n2C
0.78 | -0.08 | c1cncc(-c2nn3cnnc3s2)c1
1.6 | -0.58 | Cc1c(C(=O)NN)[nH]c2ccc([N+](=O)[O-])cc12
0.92 | -0.29 | CC1=CC2=NC(=O)CC(C)(C(=O)N(CC(=O)NC(C)(C)C)Cc3ccccc3)N2C=C1 (stereo unspecified)
1.06 | 1.08 | C=CCC1Cc2c(cccc2[N+](=O)[O-])C(CC=C)N1 (stereo unspecified)
1.46 | -0.75 | COC(C(=O)N/N=C(\C)CC(=O)Nc1ccc(N(C)C)cc1)c1ccccc1 (stereo unspecified)
1.32 | 0.89 | O=C(CSc1nnc(CNC(=O)c2ccc(F)cc2)o1)NCc1ccccc1Cl
1.84 | 0.12 | Cc1ccc(C(=O)Nc2ccc(C(=O)O)cc2)cc1S(=O)(=O)Nc1cccc([N+](=O)[O-])c1
0.66 | -1.88 | O=C(CSc1nc2ccc([N+](=O)[O-])cc2[nH]1)NC1CCCC1
0.55 | -0.14 | O=C(N/N=C/C1CC=CCC1)c1cc(Br)ccc1O (stereo unspecified)
0.92 | 0 | COc1ccc(C(=O)COC(=O)/C=C/c2ccccc2)cc1
1.22 | 0.76 | O=C(CSc1nnc(-c2ccccc2Cl)o1)N1CCCC1
1.17 | -0.01 | Cc1nnc(SCc2ccc(Cl)cc2Cl)[nH]c1=O
7.7*! | 0.64*! | O=C(Nc1ncc([N+](=O)[O-])s1)c1cccs1
1.22 | -0.73 | Cc1ccc(-c2cc(C(=O)NCc3cccnc3)no2)cc1
0.95 | -0.04 | CCOc1ccc(-c2c(C(=O)N/N=C(\C)c3cccnc3)nnn2-c2nonc2N)cc1
0.03 | 0.76 | CCOc1cc(-c2noc(-c3ccncc3)n2)cc(Br)c1OC
3.84 | -0.22 | O=C(Nc1ccc(F)c(Cl)c1)C1CCN(S(=O)(=O)c2cccnc2)CC1
0.04 | 2.25 | O=c1c2ccccc2cnn1Cc1n[nH]c(=S)n1-c1ccc(Cl)cc1
1.46 | -0.04 | CCOC(=O)NC(=O)C(=CNNc1ncc(C(F)(F)F)cc1Cl)C(=O)NC(=O)OCC
0.15 | 0.11 | O=c1c2ccccc2sn1-c1nccs1
0.46 | 0.22 | COc1ccccc1C(=O)OCCNC(=O)Cn1cnc2c1c(=O)n(C)c(=O)n2C
1.45 | -1.52 | COc1ccc(NC(C)=O)cc1NC(=O)CSc1nnc(-c2ccncc2)n1C
1.09 | -2.54 | CCC(=O)NC(c1ccccc1OC)c1ccc2cccnc2c1O (stereo unspecified)
0.56 | 0 | CC(Oc1ccc2ccc(=O)oc2c1)C(=O)N1CCOCC1 (stereo unspecified)
0.04 | 1.03 | CCC(=O)Nc1ccc(-c2ccc(NC(=O)CC)c(OC)c2)cc1OC
0.43 | 0.23 | CCn1cc(Br)c(C(=O)Nc2ccc(OC)cc2)n1
0.38 | 0.01 | OC1CCCN(c2ncnc3c2nnn3Cc2c(F)cccc2Cl)C1 (stereo unspecified)
0.76 | 1.3 | COc1ccc(N2C(=O)CC(Sc3nnnn3-c3ccc(F)cc3)C2=O)cc1 (stereo unspecified)
0.02 | -0.8 | Cc1cc(C)n(CC(=O)N/N=C/c2ccc3c(c2)OCO3)n1
0.09 | 0.02 | Cc1ccc(-n2c(SCc3cc(=O)n4ccsc4n3)nnc2-c2cccnc2)c(C)c1
0.85 | -0.26 | COc1ccc(-c2nn(C)c3sc(C(=O)NCCN(C)C)cc23)cc1OC
0.47 | 0.27 | CCOc1ccc(CCNC(=O)CN2C(=O)NC(CCSC)C2=O)cc1OCC (stereo unspecified)
0.19 | -0.65 | CC(C)(O)CC[C@H](OC(=O)c1ccccc1)[C@](C)(O)[C@H]1CC[C@@]2(O)C3=CC(=O)[C@@H]4C[C@@H](O)[C@H](O)C[C@]4(C)C3CC[C@]12C (stereo partly specified)
0.32 | 0.18 | CC1=C(C(=O)OC(C)C)C2(O)C(=O)c3ccccc3C2(O)N1 (stereo unspecified)
0.31 | 0 | CC(C)(C)C1CCc2c(sc(N)c2C(N)=O)C1 (stereo unspecified)
0.73 | 0.91 | O=C(N/N=C/c1ccsc1)c1ccccn1
0.02 | 0.48 | CSc1ccc(CN(C)C(=O)CSCC(=O)Nc2ccc(C)cc2)cc1
0.03 | -0.31 | CCCCC(CC)CNC(=O)Cn1c(=S)[nH]c2ncccc2c1=O (stereo unspecified)
1.61 | -0.35 | CCCCNC(=S)NNC(=O)c1c(Cl)c(C)nn1C
1.54 | 0.51 | CCOc1ccccc1C(=O)NCC(=O)OCC(=O)N1C(C)CCCC1C (stereo unspecified)
0.27 | 1.09 | CC12CCCCC1(O)[N+](=O)C1=C(CCCC1)N2[O-] (stereo unspecified)
0.04 | 0.05 | CC1CN(C(=O)Nc2ccc(F)cc2)C2(CCCCCC2)O1 (stereo unspecified)
0.04 | -0.29 | CC(C)NC(=O)CSc1nnc2sc3ccccc3n12
0.47 | 0.26 | CC(NC(=S)Nc1ccccc1)C(c1cccs1)N1CCOCC1 (stereo unspecified)
1.27 | -2.43 | Cc1onc(-c2ccccc2)c1C(=O)N1CCN(c2ccccc2)CC1
0.51 | -2.36 | Cc1ccc(C(=O)CC2(O)C(=O)N(C)c3ccccc32)s1 (stereo unspecified)
0.27 | -2.4 | CC(c1ccon1)N(C)C(=O)CCc1nnc(Cc2ccc(-c3ccccc3)cc2)o1 (stereo unspecified)
0.05 | -1.29 | Cc1c(C(=O)O)sc(=S)n1-c1ccc(Cl)cc1
0.75 | 0.2 | CCc1cccc(C)c1NC(=O)COC(=O)c1cc([N+](=O)[O-])ccc1N1CCOCC1
0.11 | -1.11 | O=C(CCn1cnc2ccccc2c1=O)Nc1ccc(S(=O)(=O)N2CCCC2)cc1
0.46 | 1.22 | COc1ccc(S(=O)(=O)NCCc2cn3nc(C)c(C)nc3n2)cc1F
1.03 | -2.84 | CC(C)C(=O)Nc1cccc(C(=O)NCc2ccc3c(c2)OCO3)c1
0.07 | 0.53 | CCn1c(O)c(/C=C2\C=Nc3ccccc32)sc1=Nc1ccc(C)cc1

5 of these compounds, reformatted.
Order of results: KCNQ2 pot	KCNQ2 pot baseline
CC(c1ccon1)N(C)C(=O)CCc1nnc(Cc2ccc(-c3ccccc3)cc2)o1 (stereo unspecified)
→ 0.27	-2.4
CC(C)NC(=O)CSc1nnc2sc3ccccc3n12
→ 0.04	-0.29
Cc1ccc(C(=O)CC2(O)C(=O)N(C)c3ccccc32)s1 (stereo unspecified)
→ 0.51	-2.36
Cc1cc(C)n(CC(=O)N/N=C/c2ccc3c(c2)OCO3)n1
→ 0.02	-0.8
COc1ccc(-c2nn(C)c3sc(C(=O)NCCN(C)C)cc23)cc1OC
→ 0.85	-0.26

Next part.
KCNQ2 pot | KCNQ2 pot baseline | structure
0.44 | 1.17 | CN(CCC1CCCCO1)C(=O)CCc1nnc(CCCCc2ccccc2)o1 (stereo unspecified)
0.44 | -0.14 | CC(C)CNC(=S)NNC(=O)c1ccccc1OC(F)F
1.86 | 0.67 | CCOC(=O)c1cnc2c(C)c(C)ccc2c1NCCN1CCOCC1
2.54 | 0.01 | O=C(c1ccccc1)N1CCN(c2ccc([N+](=O)[O-])c(N3CCOCC3)c2)CC1
0.32 | -0.97 | CCNC(=O)CN1C(=O)NC2(CCCc3cc(OC)ccc32)C1=O (stereo unspecified)
0.2 | -1.94 | CCNc1nc(NC(C)C)nc(N2CC(=O)N(CC(=O)OCC)C2=N)n1
0.4 | -0.01 | CCc1c(O)nc(SCC(=O)Nc2ccc(OC)cc2)n(C2CCCCC2)c1=O
0.45 | -0.19 | O=C1CC(c2ccc(F)cc2)Cc2nc(N3CCOCC3)ncc21 (stereo unspecified)
0.5 | 0.06 | O=C(CCc1nc2ccccc2[nH]c1=O)OCC(=O)c1ccc(Cl)cc1
1.75 | -0.54 | CC(=O)Nc1ccccc1Nc1cc(C#N)c(C#N)cc1[N+](=O)[O-]
1.13 | 0.22 | COc1cccc(C(=O)NNC(=O)C2CCCO2)c1 (stereo unspecified)
0.29 | 0.02 | COC(=O)c1cc(/C=C/c2ccccc2)[nH]n1
0.51 | -0.49 | Cn1c2c(c(=O)n(C)c1=O)C(c1ccccc1OC(F)F)C1=C(CCCC1=O)N2 (stereo unspecified)
0.64 | -0.4 | COc1ccc(OC)c(-c2csc(NC(=O)c3ccc(OCC4CCCO4)cc3)n2)c1 (stereo unspecified)
0.85 | -0.08 | O=C(/C(N=Nc1cccc(C(F)(F)F)c1)=C(/O)c1cccs1)C(F)(F)F
0.66 | 0.68 | CN(C)c1nc2n(c(=S)n1)CCS2
0.2 | 1.89 | CC(=O)c1cnc(SCC(=O)O)nc1C
0.19 | 0.08 | CCOC(=O)c1cnc2ccccc2c1Nc1ccc2c(c1)OCCO2
0.02 | -1.64 | COc1ccc(C(=O)Nc2cc(OC)ccc2OC)cc1
0.01 | -0.75 | O=[N+]([O-])c1ccccc1N/N=C1\CC2CC=CC12 (stereo unspecified)
0.41 | -0.7 | COc1cccc(C(c2nnnn2CC2CCCO2)N2CCN(C(=O)c3ccco3)CC2)c1OC (stereo unspecified)
0.76 | 0.06 | Cn1nnnc1SCC(=O)Nc1ccc(Oc2ccc(Cl)cc2)cc1
9.66* | 0.34* | Cc1ccnc(NC(=O)C23CC4CC(CC(C4)C2)C3)c1
0.46 | -3.62 | CC(Oc1ccccc1)C(=O)Nc1nnc(S(=O)(=O)Nc2ccccc2)s1 (stereo unspecified)
0.39 | 0.11 | CCc1ccc(C2NC(=S)NC3=C2C(=O)N(c2ccccc2OC)C(c2ccc(CC)cc2)N3)cc1 (stereo unspecified)
1.31 | -0.62 | COc1ccc(S(=O)(=O)CCC(=O)N2CCN(c3ccc(F)cc3)CC2)cc1
0.01 | 0.11 | O=C(CN1C(=O)c2ccc([N+](=O)[O-])cc2C1=O)Nc1nccs1
0.49 | 1.69 | CCn1c(SCC(=O)NCc2ccccc2)nnc1-c1c[nH]c2ccccc12
0.4 | -0.73 | Cc1ccc(-c2nc3ccccn3c2Nc2ccccc2)o1
1.5 | 0 | O=C(c1ccc(Cl)c(S(=O)(=O)N2CCCCC2)c1)N1CCCC1
1.18 | -0.97 | O=C(Nc1ccccc1)c1cccc(C(F)(F)F)c1
1.23 | -0.31 | COc1ccc(CCn2ccc(O)c(Cc3c(F)cccc3Cl)c2=O)cc1OC
0.04 | -3.88 | CC(NC(=O)c1ccccc1)C(=O)N/N=C/c1ccco1 (stereo unspecified)
1.4 | -2.67 | COc1ccc(N2CCN(CC(O)COc3cc(C)ccc3C)CC2)cc1 (stereo unspecified)
1.3 | 0.23 | CCCN1C2=NCCN2c2ccccc21
0.86 | -0.58 | CCOC(=O)CSc1nnc(-c2ccccc2)c(=O)[nH]1
0.78 | -0.69 | CS(=O)(=O)N(CC(=O)NCCSc1ccccn1)c1cccc2ccccc12
0.05 | -2.7 | CCOc1cc(/C=N/NC(=O)c2cc3c(ccc4ccccc43)o2)ccc1O
0.97 | -0.73 | CCn1c(C)cs/c1=N\S(=O)(=O)c1ccccc1
0.92 | 0.27 | O=C(CCCC1=NS(=O)(=O)c2ccccc2N1)N1CCN(c2ccc([N+](=O)[O-])cc2)CC1
0.81 | -1.12 | O=S(=O)(c1cccc(S(=O)(=O)N2CCCC2)c1)c1cccc(S(=O)(=O)N2CCCC2)c1
0.52 | 0.29 | O=C(CN1C(=O)COc2ccccc21)N1CCc2ccccc2C1
1.95 | 0.35 | O=C(NCc1ccccc1)Nc1cccc2ccccc12
1.6 | 1.3 | COCCn1c(Cc2ccccc2)nnc1SCC(=O)NC(C)C
2.13 | -3.43 | CCO[C@H]1OC(C(=O)NC2CC2)=C[C@@H](c2ccc3c(c2)OCO3)[C@@H]1CCCO
0.61 | -0.68 | COCCNC(=O)NC(=O)CSc1nc(C)c(C)c(C)n1
1.64 | -2.45 | CC(C)N1CCN(Cc2cccn2-c2ccccn2)CC1CCO (stereo unspecified)
0.08 | -1.03 | CCC(=O)Nc1cccc(NC(=S)NC(=O)c2cccc(C)c2)c1
0.77 | 1.51 | CC1CCCC(C)N1/N=C/c1ccccc1Br (stereo unspecified)
0.58 | -0.16 | COc1ccc(OCC(=O)N/N=c2\oc3c(OC)cccc3cc2C(N)=O)cc1
0.77 | 2.06 | Cc1ccc(NC(=O)c2cc(N3C(=O)CCC3=O)ccc2N2CCOCC2)cc1
1.15 | -0.72 | COc1ccc(C(=O)N/N=C2\CCS(=O)(=O)c3ccc(F)cc32)cc1OC
0.65 | -0.51 | CCOC(=O)c1[nH]c(=O)c2ccccc2c1O
0.24 | 0.01 | Cc1onc(-c2c(F)cccc2Cl)c1C(=O)NCCc1ccncc1
0.11 | 0.67 | CN(c1ccc(C(=O)Nc2ccc3c(c2)n(C)c(=O)n3C)cc1)S(C)(=O)=O

Compound profiles, from the list above. Order of screens: KCNQ2 pot | KCNQ2 pot baseline
Record of CCNC(=O)CN1C(=O)NC2(CCCc3cc(OC)ccc32)C1=O (stereo unspecified) : 0.32 | -0.97
Record of O=C(CCc1nc2ccccc2[nH]c1=O)OCC(=O)c1ccc(Cl)cc1 : 0.5 | 0.06
Record of CC(NC(=S)Nc1ccccc1)C(c1cccs1)N1CCOCC1 (stereo unspecified) : 0.47 | 0.26
Record of Cc1c(C(=O)NN)[nH]c2ccc([N+](=O)[O-])cc12 : 1.6 | -0.58
Record of O=C(Nc1ncc([N+](=O)[O-])s1)c1cccs1 : 7.7*! | 0.64*!

Assay outcomes: PubChem BioAssay, Johns Hopkins Ion Channel Center
